# Screening results (PubChem BioAssay)
# D2 potentiator = human D2 receptor positive allosteric modulation | P14416 | DiscoveRx D2 beta-arrestin cells, luminescence, 90 min; 100% = 57 uM dopamine signal | hit rate 0.23% among 360,000 | potentiation, % (test concentration not listed); active = potentiation of 50% or more; inconclusive = 30% to 50%; inactive = 30% or less;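 further: compound concentration not given in the record; tested on top of an EC20 dose of dopamine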
#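 D2 cells co-treated with compound plus 50 nM dopamine (EC20) for 90 min at 37 deg C to detect potentiation. Beta-arrestin recruitment was read as enzyme-fragment luminescence after 1 h at ambient temperature. Full response was set by 57 uM dopamine.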
# PINK1 expr mod = PINK1 expression modulation; AID 624263; Potency, µM (top dose mostly 76.6 µM), for the others: at the highest dose activation (PINK1 increase), usual class: activators; hit rate 0.2% among 410,000; PINK1 immunofluorescence, high-content cytometry, 24 h; active = well fitted activation curve with a large enough effect; inconclusive = small, poorly fitted or top-dose-only effect; inactive = flat fitted curve, though single readings scatter; cell line not stated here;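 further: potency means the concentration at half of the fitted maximal effect; % of control where 0% means no effect; nearly all actives have a fitted effect of over 65% in size; a mitochondrial uncoupler was the plate control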
#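 PINK1 protein, normally rapidly degraded, was detected by immunofluorescence after 24 hour compound treatment of a stable cell line. Titration data (5 concentrations) came from laser-scanning cytometry, with CCCP-treated wells as controls.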
# D2 ag = human D2 receptor agonism in beta-arrestin assay; hit rate 0.084% among 360,000; activation, % (concentration not given with the values); DiscoveRx PathHunter D2 beta-arrestin, luminescence, 90 min; 100% = 57 uM dopamine signal; in the data active = activation above about 40%; inconclusive = about 15% to 40%; inactive = below about 15%; further: compound concentration not given in the record; the text of the record calls up to 30% inactive
#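 DiscoveRx PathHunter D2 beta-arrestin cells (2,100/well) attached overnight, then compound-stimulated 90 min at 37 C in HBSS/10 mM HEPES/0.1% Tween-20 buffer; beta-galactosidase complementation read by luminescence after 1 h at ambient temperature. Dopamine 57 uM final (EC100) as control.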
# TRPML1 agonist = human mucolipin-1 channel agonism; TRPML1-expressing cells, Ca2+ dye fluorescence, FDSS; host cell line not named in the record; reference of the full effect not given here; activation, % (no concentration beside the values); hit rate 0.12% among 410,000; AID 624414; in the data active = activation above about 50%; inconclusive = about 30% to 50%; inactive = below about 30%; further: 0% is about no effect; the text of the record puts the active cut at 80%
#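 Tetracycline-induced TRPML1-DL cells are seeded and incubated overnight before loading with a no-wash Ca2+ dye and quencher. Agonist activity is taken from the 110 s fluorescence read following compound pin-transfer on an FDSS, before EC80 54-4 challenge.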
# Six1-Eya2 inh = Six1/Eya2 interaction inhibition; AlphaScreen GST-Six1/His-Eya2 binding, biochemical; hits give low values; control for the full effect not named in the record; hit rate 0.56% among 360,000; activity change, % (test concentration not listed); Q15475+O00167; in the data active = activity change below about -65%; inconclusive = about -30% to -65%; inactive = above about -30%; further: on the % scale 0 is the no-effect control and ±100 the full control effect; compound concentration not given in the record
# Target sequence (O00167 whole entry, looked up): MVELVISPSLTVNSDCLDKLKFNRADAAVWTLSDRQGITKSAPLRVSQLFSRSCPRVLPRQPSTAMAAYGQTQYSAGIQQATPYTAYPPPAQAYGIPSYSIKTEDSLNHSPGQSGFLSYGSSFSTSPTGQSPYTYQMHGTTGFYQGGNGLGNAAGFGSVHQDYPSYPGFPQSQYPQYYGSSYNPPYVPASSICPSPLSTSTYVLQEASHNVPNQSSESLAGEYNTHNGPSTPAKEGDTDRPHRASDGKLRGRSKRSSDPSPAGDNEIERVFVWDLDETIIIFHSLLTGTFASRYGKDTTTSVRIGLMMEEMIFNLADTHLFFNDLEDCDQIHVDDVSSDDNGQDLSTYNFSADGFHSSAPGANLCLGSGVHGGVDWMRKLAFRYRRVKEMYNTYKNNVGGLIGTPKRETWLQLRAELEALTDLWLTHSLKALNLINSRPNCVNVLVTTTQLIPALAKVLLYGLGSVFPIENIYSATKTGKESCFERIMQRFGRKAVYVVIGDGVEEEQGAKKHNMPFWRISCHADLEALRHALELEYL
# Target sequence (Q15475 whole entry, looked up): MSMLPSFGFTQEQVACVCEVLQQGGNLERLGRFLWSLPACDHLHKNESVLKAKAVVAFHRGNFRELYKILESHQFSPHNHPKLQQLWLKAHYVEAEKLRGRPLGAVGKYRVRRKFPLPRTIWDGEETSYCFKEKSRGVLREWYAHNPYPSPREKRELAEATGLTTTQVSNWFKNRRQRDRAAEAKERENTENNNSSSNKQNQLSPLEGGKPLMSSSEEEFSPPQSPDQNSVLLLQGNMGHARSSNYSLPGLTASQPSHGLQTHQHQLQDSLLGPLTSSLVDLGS
#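 AlphaScreen luminescence read after one hour at 37 °C in darkness. Pin-transferred compounds met GST-Six1 and His-Eya2 protein (5X stock 250 nM/500 nM) plus glutathione donor and Ni-chelate acceptor beads (5X, 50 ug/mL).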
# CtBP-E1A inh = blocks the CtBP interaction with E1A | AlphaScreen GST-E1A/His-CtBP binding, 1536-well; hits give low values; control for the full effect not named in the record | activity change, % (concentration not given with the values) | hit rate 0.49% among 340,000 | AID 651724; in the data active means activity change below about -65%; inconclusive means about -30% to -65%; inactive means above about -30%; further: on the % scale 0 is the no-effect control and ±100 the full control effect
#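 Protein mix (5X: 125 nM each GST-E1A, His-CtBP) was incubated with pinned compound 2 h at 37 deg C in dark, in 50 mM Tris pH 8.0 buffer with 300 mM NaCl. Glutathione donor and nickel acceptor beads followed; AlphaScreen signal read after 1 h.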
# Numbers without * were called inactive; ? = inconclusive; · = not tested or not shown; [ ] = dose if it differs, or a comment. Rows are unselected; 1.3% or so of the library scored in one or more.
SMILES,D2 potentiator,PINK1 expr mod,D2 ag,TRPML1 agonist,Six1-Eya2 inh,CtBP-E1A inh
O=C(Cc1ccc(Br)cc1)N1CCN(c2ccccc2O)CC1,12,-0.4%,-0.8,0.6,-1,0
Cc1ccccc1N1CC(C(=O)Nc2nnc(SCc3cccnc3)s2)CC1=O (configuration not stated),14,1.4%,-0.2,-0.6,-6,0
Cc1nc(N2CCOCC2)nc(Oc2ccccc2)c1[N+](=O)[O-],-13,1.4%,-4.5,0.5,-8,·
O=C(c1ccc(Cl)cc1)n1cnc2ccccc21,-2,1.5%,4.6,-0.8,3,·
COc1cc(/C=N\NC(=O)c2sc(N)nc2C)cc(OC)c1OC,2,-1.5%,0.4,-0.2,-82*,-84*
CC1(C)CC(NC(=O)c2ccccc2F)CC(C)(C)N1,-6,0.5%,-0.6,-0.1,-9,5
O=C(CCN1C(=O)/C(=C/c2ccccc2Cl)SC1=S)Nc1ccccc1C(=O)O,5,-1.5%,2.0,0.6,-6,-14
CN1CCCC2(CCCN(Cc3nc(Cc4cccc(C(F)(F)F)c4)no3)C2)C1 (configuration not stated),-5,3.8%,-2.7,-0.5,-4,-3
O=C1CCCC(=O)C1Sc1ccc(Cl)cc1,2,-0.7%,0.6,-0.4,2,-1
CCC(OC(=O)c1cc2sccc2n1C)C(=O)NCc1ccco1 (configuration not stated),4,·,-0.3,1.2,-9,9
O=C(Nc1ccc2oc(=O)ccc2c1)c1ccc(-c2ccccc2[N+](=O)[O-])o1,-14,5.2%,3.6,1.3,-19,-2
O=C(COc1ccc(Cl)cc1)Nc1nnc(-c2ccc3c(c2)CCCC3)o1,-5,0.3%,-2.5,-0.9,-4,8
Cc1cc(C)c[n+](CC(=O)c2ccc(NC(=O)c3ccccc3)cc2)c1,-3,0.1%,-0.8,-0.2,-1,-19
COc1ccc(S(=O)(=O)N2CCN(C(=O)c3c(C)nn(-c4ccccc4)c3C)CC2)cc1,13,-2.0%,-1.2,-0.7,0,-1
O=C(CSc1nnc(-c2ccccn2)o1)Nc1ccccc1,1,-1.2%,0.0,-0.3,-22,-21

# 7 records picked at random from the list so far, as already listed:
SMILES,D2 potentiator,PINK1 expr mod,D2 ag,TRPML1 agonist,Six1-Eya2 inh,CtBP-E1A inh
O=C(CSc1nnc(-c2ccccn2)o1)Nc1ccccc1,1,-1.2%,0.0,-0.3,-22,-21
CC1(C)CC(NC(=O)c2ccccc2F)CC(C)(C)N1,-6,0.5%,-0.6,-0.1,-9,5
O=C(Nc1ccc2oc(=O)ccc2c1)c1ccc(-c2ccccc2[N+](=O)[O-])o1,-14,5.2%,3.6,1.3,-19,-2
O=C(Cc1ccc(Br)cc1)N1CCN(c2ccccc2O)CC1,12,-0.4%,-0.8,0.6,-1,0
O=C(c1ccc(Cl)cc1)n1cnc2ccccc21,-2,1.5%,4.6,-0.8,3,·
Cc1nc(N2CCOCC2)nc(Oc2ccccc2)c1[N+](=O)[O-],-13,1.4%,-4.5,0.5,-8,·
O=C(CCN1C(=O)/C(=C/c2ccccc2Cl)SC1=S)Nc1ccccc1C(=O)O,5,-1.5%,2.0,0.6,-6,-14

# Carrying on.
SMILES,D2 potentiator,PINK1 expr mod,D2 ag,TRPML1 agonist,Six1-Eya2 inh,CtBP-E1A inh
CCC(c1nnnn1C(C)(C)C)N1CCN(Cc2ccccc2OC)CC1 (configuration not stated),-26,0.4%,-2.1,0.0,-2,-9
COCCN(Cc1nc(-c2ccc(C(F)(F)F)cc2)no1)C(C)C,-1,16%,-4.7,0.6,13,12
O=C1NC[C@H](c2ccccc2)OC(=O)[C@H](Cc2ccc(F)cc2)C/C=C\C[C@@H]1CC(=O)N(CCO)Cc1ccccc1,-8,-1.3%,5.8,-0.1,-9,-8
COC(=O)C(Cc1ccc(O)cc1)NC(=O)C(C)NC(=O)c1ccc(C(C)(C)C)cc1 (configuration not stated),-4,0.7%,-0.3,-0.4,12,6
CS(=O)(=O)N(CC(=O)NC1CCCCCC1)Cc1ccccc1,-14,-0.8%[38.3 µM],-2.0,-0.4,3,5
CCOC(=O)N/N=C\c1ccc(OC(=O)c2ccc3c(c2)OCO3)cc1,3,-2.3%,3.8,0.1,11,6
Clc1ccc(-n2ncc3c(NCCCn4ccnc4)ncnc32)cc1,-1,-1.5%,-3.3,0.2,-1,-4
Cc1nc(NS(=O)(=O)c2cccs2)c2c3c(sc2n1)CCC3,5,-1.5%,0.9,1.2,3,1
Cn1c(=O)c2cn3c(c2n(C)c1=O)C(c1ccccc1)CC(c1ccccc1)=N3 (configuration not stated),14,-1.1%,-2.4,0.1,0,7
CNC[C@H]1Oc2c(NC(=O)C3CCCCC3)cccc2C(=O)N([C@H](C)CO)C[C@@H]1C,-5,0.7%,-0.7,0.0,9,6
O=C(COC(=O)c1cccc([N+](=O)[O-])c1)Nc1ncc(Br)s1,-6,-2.8%,-0.2,1.1,-9,-4
C=CCN1C=CC(=CC=C(C#N)C#N)C=C1,-17,19%,0.1,?,-8,2
CCNC(=O)NC(=O)COc1ccccc1C#N,3,·,-1.7,0.0,2,6
CC(Sc1ccccc1)C(=O)Nc1ccccc1C(=O)N1CCOCC1 (configuration not stated),9,1.2%,-2.5,-0.8,9,-1
Cc1cc(C)c(S(=O)(=O)Nc2nnc(C3CCCCC3)s2)c(C)c1,-11,1.3%,-1.9,-0.4,1,6
COc1ccc(Oc2nc(OC)cc(OC)n2)cc1,-8,3.6%,-0.8,1.8,0,13
Cc1cc(C(=O)OCC(=O)N2CC(C)CC(C)C2)c(C)o1 (configuration not stated),-12,0.2%,-2.9,0.1,-3,0
O=C1NC(Cc2ccccc2)C(=O)N1Cc1cc([N+](=O)[O-])cc2c1OCOC2 (configuration not stated),3,-0.3%,-0.5,0.0,-6,0
CCOC(=O)C1(C)CCCN(C(=O)c2ccc(C)c(F)c2)C1 (configuration not stated),-3,1.4%,-2.9,-1.3,1,5
CCOc1ccc(CNc2ncc(-c3ccccc3)n2C)cc1,-37,-0.6%,-5.2,0.8,-4,-8
COc1c(O)cc2oc(-c3ccc(O)cc3)cc(=O)c2c1O,1,2.6%,2.3,0.5,-26,?
O=c1cc(-c2ccccc2)oc2cc(O)ccc12,1,2.8%,0.0,1.6,-9,4
Cc1cc(C)c2c(NC(=S)NC(=O)c3ccccc3)nn(C)c2n1,-4,-0.9%,-6.8,-0.3,7,1
O=C(c1ccc(N2CCOCC2)nc1)N1CCOCC1,5,-2.0%[38.3 µM],-1.3,2.8,6,8
Cc1ccc(NC2CCCN(C(=O)CCN3CCCCO3)C2)cc1C (configuration not stated),-10,4.4%,-5.4,1.0,-2,9
CCOc1ccccc1-c1nn2c(Cc3ccccc3)nnc2s1,-12,23%[38.3 µM],-0.6,3.3,-5,-18
O=[N+]([O-])c1ccc(CSc2nc3ccccc3o2)cc1,15,1.8%,0.9,3.2,-7,-5
CC(=O)Nc1ccc(/C=N\NC(=O)CNS(=O)(=O)c2ccc([N+](=O)[O-])cc2)cc1,4,-2.0%,13,-0.1,2,2
O=C1CNC(=O)/C1=C\N1CCN(C(c2ccccc2)c2ccccc2)CC1,-4,7.4%,-6.1,-0.3,0,-1
Cc1cc(O)ccc1NS(=O)(=O)c1ccc2c3c(cccc13)C(=O)N2,-2,0.3%,1.7,-0.6,?,-23
O=C(COC(=O)c1cc(Cl)ccc1Cl)NC1CCCC1,1,4.6%,-2.3,0.9,12,2
CC1CC(C)CN(C(=O)c2ccc(CNc3c(N4CCCC4)c(=O)c3=O)cc2)C1 (configuration not stated),4,3.2%,-3.7,0.1,0,0
CCOC(=O)CNC(=O)c1cnc(Nc2ccccc2OC)c2ccccc12,-6,2.6%,3.1,1.9,6,11
COc1cc(/C=N/N(C)C)cc(Br)c1O,8,-0.8%,6.6,-0.5,-1,-9
CCC1(C)Cc2ccccc2-c2[nH]c(=S)[nH]c(=O)c21 (configuration not stated),-8,-0.3%,4.5,0.9,5,1
CC1(c2ccc([N+](=O)[O-])cc2)NC(=O)N(CC(=O)Nc2cccnc2Cl)C1=O (configuration not stated),-9,3.1%,-1.7,13,3,-18
COC1=CC(=O)C[C@@H](C)[C@]12Oc1c(Cl)c(OC)cc(OC)c1C2=O,-8,4.8%,-4.7,-0.4,0,4
C#CCOCCOCCOCCNc1nc(N2CCOCC2)nc(N2CCN(C(=O)[C@H](Cc3ccc(O)cc3)n3cc([C@@H](N)CC(C)C)nn3)CC2)n1,-19,1.4%,-0.8,0.2,-2,-1
Cc1cc(OCC(=O)N(Cc2ccco2)c2c(N)n(Cc3ccccc3)c(=O)[nH]c2=O)ccc1Cl,-2,18%,-3.7,-0.1,9,·
COc1ccc(-n2cnnc2SCC(=O)Nc2cccc(S(N)(=O)=O)c2)cc1,-4,2.2%,7.1,-0.5,4,7
Cc1cc2c(C)cc(=O)oc2c2c1NCCC2,-1,-1.0%[38.3 µM],-2.6,0.2,-6,-8
Cc1cccc(C)c1C(O)c1ncc(-c2ccc(Cl)cc2)[nH]1 (configuration not stated),-2,0.3%,-3.9,-0.9,-8,-9
C=CCn1c(C(C)NC(=O)c2ccccc2)n[nH]c1=S (configuration not stated),-3,0.0%[38.3 µM],-0.4,0.3,0,-13
Cc1cccc(NC(=O)CN2CCN(C(=O)c3c(C)nn(Cc4ccccc4)c3C)CC2)c1C,-8,2.1%,-5.9,-0.1,1,7
CN(CCOc1ccc(Cl)cc1)C(=O)C1=CC=CN2CCS(=O)(=O)N=C12,-1,2.3%,5.8,1.5,9,4
C=CCOc1c(CNc2ccc(S(N)(=O)=O)cc2)cccc1OC,-2,-0.8%,-0.3,-1.5,-6,3
CCCC(=O)NC1CCc2cc(OC)c(OC)c(OC)c2-c2ccc(OC)c(=O)cc21 (configuration not stated),-7,9.1%,0.2,0.6,9,0
Cc1ccc(NC(=O)/C(C#N)=C/c2ccsc2)c(C)c1,0,4.2%,-1.3,0.0,10,2
Cc1cccc(NC(=O)C2CCC(CNC(=O)[C@@H]3Cc4ccccc4CN3)CC2)c1 (some centres not stated),-21,1.2%,-4.5,0.8,2,-12
O=C(O)c1ccc(N=C2c3ccccc3-c3ccccc32)cc1,2,2.4%,2.9,0.4,7,2
O=C(NNS(=O)(=O)c1cc(Cl)cc(Cl)c1)c1sccc1-n1cccc1,-1,-2.9%,-1.7,-1.0,-5,-2
COCCCNC(=O)COc1ccc2oc3c(c2c1)CCCC3,8,3.8%,-2.1,-0.5,0,2
COc1cc(OC)cc(C(=O)N[C@H](C(=O)OCC(=O)c2ccc3c(c2)NC(=O)CO3)C(C)C)c1,-2,-0.9%,-2.9,-0.7,-12,-9
CN(C)C(=O)c1cc(C(=O)c2ccc(F)cc2F)c[nH]1,-3,0.4%,-0.4,-0.3,7,-1
CNCCC(Oc1ccccc1OC)c1ccccc1 (configuration not stated),-27,2.7%,-2.9,0.3,1,-10
COc1cccc(OCC(Cn2cnc3ccccc32)OC(C)=O)c1 (configuration not stated),-3,3.9%,-3.0,1.4,1,·
